# HNF4A DNA FP: change in binding of human HNF4 alpha to DNA | P41235 | HNF4a-FITC DNA binding, fluorescence polarization, 1 h | activity change, % at 10 µM | hit rate 0.3% among 360,000 | AID 1224865; in the data active = activity change above about 30%, passing the limit was not always enough;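 note: controls were the assay level and a saturating level of protein; the project sought stronger binding though the title names inhibitors; some compounds called inactive have numbers as strong as hits; positive values seem to mean higher polarization but the record does not say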
# Target sequence (P41235 whole entry, looked up): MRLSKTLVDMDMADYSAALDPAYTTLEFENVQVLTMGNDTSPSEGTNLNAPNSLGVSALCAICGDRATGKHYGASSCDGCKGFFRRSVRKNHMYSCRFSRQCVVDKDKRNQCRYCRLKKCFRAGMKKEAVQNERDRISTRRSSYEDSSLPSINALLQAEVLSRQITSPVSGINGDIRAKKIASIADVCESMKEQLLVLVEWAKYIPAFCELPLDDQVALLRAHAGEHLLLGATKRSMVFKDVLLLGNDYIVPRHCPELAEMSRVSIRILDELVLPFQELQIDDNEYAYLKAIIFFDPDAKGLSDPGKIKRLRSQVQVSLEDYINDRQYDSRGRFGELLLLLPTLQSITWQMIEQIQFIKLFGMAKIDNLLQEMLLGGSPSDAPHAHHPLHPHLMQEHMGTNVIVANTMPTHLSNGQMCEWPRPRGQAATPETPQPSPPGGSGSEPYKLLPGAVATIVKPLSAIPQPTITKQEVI
# RanGTP-Impb inh: inhibitors of RanGTP-importin-beta interaction, primary screen, biochemical, FRET, CFP-Ran, YFP-importin-beta, homogeneous | cell-free CFP-Ran/YFP-importin-beta FRET ratio | inhibition, % (no concentration beside the values) | hit rate 1.1% among 300,000;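 active = most replicates above 15%; inconclusive = exactly half above 15%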;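 note: 0% = DMSO wells and 100% = Ran loaded with GDP instead of GTP; wells of about 40 µL received 100 nL stock; the first replicate is given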
# LANA-H2B inh: blocks KSHV LANA binding to histone H2A/H2B; inhibition, % (test concentration not listed); AID 2629; cell-free LANA-H2A/H2B peptide, fluorescence polarization; hit rate 0.6% among 320,000; Q9QR71; in the data active = inhibition mostly above about 10%, no sharp cut-off; inactive = mostly below about 6.7%;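 note: stock transfer was 7.5 nL into about 10 µL; 0% = median of vehicle wells and 100% = median of positive control wells; one replicate is shown; the record names a cut of 25% in any replicate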
# B2AR ag: activates human beta-2 adrenergic receptor causing internalization | response, % (no concentration beside the values) | P07550 | hit rate 0.43% among 340,000 | Am2.2-beta2AR cells, FAP receptor internalization, flow cytometry; reference of the scale not given here;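 active = response above a set limit, near 3 SD of response in nonfluorescent compounds, cut at about 42% in these data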;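 note: stock transfer was 100 nL into about 11 µL; a reference agonist was the positive control; negative values mostly stem from fluorescent compounds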
# Target sequence (P07550 whole entry, looked up): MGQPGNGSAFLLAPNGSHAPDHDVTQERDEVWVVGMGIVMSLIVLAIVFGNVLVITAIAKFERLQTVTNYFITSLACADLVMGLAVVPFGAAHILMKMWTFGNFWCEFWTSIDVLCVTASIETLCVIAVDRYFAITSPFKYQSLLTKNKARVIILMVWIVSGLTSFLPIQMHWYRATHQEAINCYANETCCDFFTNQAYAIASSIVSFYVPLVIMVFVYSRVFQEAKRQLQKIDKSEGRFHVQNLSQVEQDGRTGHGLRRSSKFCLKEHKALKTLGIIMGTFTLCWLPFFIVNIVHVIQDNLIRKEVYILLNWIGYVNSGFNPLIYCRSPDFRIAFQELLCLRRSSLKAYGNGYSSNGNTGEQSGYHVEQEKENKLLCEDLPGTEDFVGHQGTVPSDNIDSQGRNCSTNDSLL
# Vif A3G: inhibitors of Vif binding to APOBEC3G peptide, primary screen, biochemical, TR-FRET, GST-Vif 1-94, biotin-A3G peptide, dose response retest (AID 1117319); TR-FRET GST-Vif / biotin-A3G peptide binding; higher % means a stronger effect; test concentration not given here; strong numbers were not always called active; inhibition, %; hits with a dose series show IC50 in µM; hit rate 0.57% among 260,000;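 active = above the screen mean plus three standard deviations and confirmed in dose response; inconclusive = results disagree or hit not tested in dose response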;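 note: Vif residues 1-94 fused to GST binding biotinylated APOBEC3G peptide 110-148; 0% = full assay without inhibitor and 100% = GST in place of GST-Vif; retest series ran down from 100 µM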
# ALR H2O2 inh: human ALR oxidase inhibition via reduced H2O2. inhibition, % (no concentration beside the values). hit rate 3.8% among 290,000. P55789. AID 485317. purified ALR, DTT oxidation, H2O2 HRP-luminol luminescence;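 active = mean and each replicate at 75% or more; inconclusive = only one of the two met; inactive = neither met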;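 note: stock transfer was 7.5 nL into about 7.5 µL; 0% = neutral wells and 100% = wells with inactivated enzyme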
# Target sequence (P55789 whole entry, looked up): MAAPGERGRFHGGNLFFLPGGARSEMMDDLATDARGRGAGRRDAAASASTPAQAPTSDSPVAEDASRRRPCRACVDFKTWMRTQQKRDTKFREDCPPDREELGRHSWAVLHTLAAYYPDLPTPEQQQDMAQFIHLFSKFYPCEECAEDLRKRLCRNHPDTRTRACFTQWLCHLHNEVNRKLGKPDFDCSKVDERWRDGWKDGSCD
# Calb FLC: affects C. albicans growth with fluconazole. C. albicans CaCi-2 (fluconazole-resistant clinical isolate) + fluconazole, Alamar Blue growth, 48 h. growth inhibition, % (concentration not given with the values). hit rate 0.57% among 300,000;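 active = most replicates above 75%; inconclusive = exactly half above 75%; inactive = most below 75%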;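 note: all wells also contain fluconazole at 8 µg/ml as a sub-toxic cotreatment; 0% = median of DMSO wells and 100% = median of geldanamycin control wells; wells of about 8 µL received 7.5 nL stock; the first replicate is given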
# Active calls of the source: *; ? = inconclusive; . = no result given.
1: CC1=C(C#N)C(c2ccc(O)cc2)C2=C(CC(C)(C)CC2=O)N1 (stereo not given)
2: CN(CC(=O)Nc1ccccc1Cl)C(=O)COC(=O)c1ccccc1[N+](=O)[O-]
3: O=C1COc2ccc(C(=O)COc3ccc(Cl)cc3Br)cc2N1
4: O=C(O)c1cccc(Nc2ncnc3c2cnn3-c2ccccc2)c1
5: NS(=O)(=O)c1ccc(NC(=O)c2cccc(Cl)c2)cc1
6: Fc1ccc(OCCCCN2CCOCC2)cc1
7: O=C(COC(=O)c1ccccc1Nc1ccccc1)c1ccccc1
8: COc1cc(OC)cc(C(=O)NCC(=O)N2CCCCCCC2)c1
9: CCOc1ccc(-n2c(SCC(=O)NCc3ccco3)nc3c(c2=O)SCC3)cc1
10: Cc1nc(SCC(=O)c2cccc([N+](=O)[O-])c2)n[nH]1

entry no. | 1 | 2 | 3 | 4 | 5 | 6 | 7 | 8 | 9 | 10
HNF4A DNA FP | -0.4 | 2.1 | -1.0 | -0.3 | -0.3 | -0.1 | -0.5 | -1.9 | 3.4 | -0.1
RanGTP-Impb inh | -0.6 | -1.1 | 5.5 | ? | 2.6 | -1.3 | 4.0 | . | . | 0.9
LANA-H2B inh | -1.7 | -0.7 | 2.6 | -1.2 | -1.6 | 1.5 | -3.4 | 0.6 | -2.7 | 2.2
B2AR ag | -7 | -4 | 0 | 0 | 4 | -2 | 14 | -7 | -7 | -4
Vif A3G | 4% | 0% | -5% | 18% | . | ? | -2% | 11% | 7% | ?
ALR H2O2 inh | 3 | -3 | -6 | -3 | -12 | -6 | . | -4 | -11 | .
Calb FLC | -6 | -10 | -2 | -6 | 8 | -7 | 15 | . | . | 1

# Reformatted: entries from further up.
no.	compound	HNF4A DNA FP	RanGTP-Impb inh	LANA-H2B inh	B2AR ag	Vif A3G	ALR H2O2 inh	Calb FLC
9	CCOc1ccc(-n2c(SCC(=O)NCc3ccco3)nc3c(c2=O)SCC3)cc1	3.4	.	-2.7	-7	7%	-11	.
3	O=C1COc2ccc(C(=O)COc3ccc(Cl)cc3Br)cc2N1	-1.0	5.5	2.6	0	-5%	-6	-2
1	CC1=C(C#N)C(c2ccc(O)cc2)C2=C(CC(C)(C)CC2=O)N1 (stereo not given)	-0.4	-0.6	-1.7	-7	4%	3	-6
4	O=C(O)c1cccc(Nc2ncnc3c2cnn3-c2ccccc2)c1	-0.3	?	-1.2	0	18%	-3	-6

# Next section.
11: Cc1onc(-c2ccccc2)c1CNC(=O)Nc1ccc(F)cc1F
12: Cc1cc(Br)ccc1SCC(=O)OCC(=O)Nc1ccc2[nH]c(=O)[nH]c2c1
13: CCN1CCN(C(=O)c2cccc(OC3CCN(S(C)(=O)=O)CC3)c2)[C@@H](C)C1=O
14: Cn1c(=O)cc(OCC(=O)Nc2ccccn2)c2ccccc21
15: O=c1c2ccccc2nc(SCc2ccncc2)n1CC1CCCO1 (stereo not given)
16: O=C(c1ccc2[nH]c(=O)c(=O)[nH]c2c1)N1CCc2ccccc2C1
17: Cc1ccc(S(=O)(=O)NC(=O)Nc2cc(C)ccc2F)cc1
18: CC(C)N(c1nnc(N)s1)C(C)C
19: CCCCn1c(SCC(=O)Nc2cc(C)on2)nc2ccsc2c1=O
20: Cc1ccccc1NC(=S)N1CCCC(c2nc3ccccc3[nH]2)C1 (stereo not given)

entry no. | 11 | 12 | 13 | 14 | 15 | 16 | 17 | 18 | 19 | 20
HNF4A DNA FP | -1.9 | -2.5 | 2.9 | -1.9 | -1.1 | -1.1 | 3.9 | 1.1 | 1.4 | 1.2
RanGTP-Impb inh | 1.8 | . | -2.7 | 2.1 | 1.3 | 3.8 | -2.1 | -3.0 | -0.2 | 4.2
LANA-H2B inh | 3.5 | -5.9 | 2.2 | -2.0 | -3.3 | -2.7 | -0.2 | 1.4 | -1.1 | 5.6
B2AR ag | -7 | 8 | -6 | 0 | -5 | -1 | 6 | -4 | -15 | -2
Vif A3G | 0% | -2% | . | 29% | -10% | . | 0% | 20% | 2% | 3%
ALR H2O2 inh | -35 | -6 | -2 | -10 | ? | -4 | -7 | 97* | 6 | -16
Calb FLC | -4 | . | 8 | -16 | -1 | -20 | 4 | -18 | 17 | 9

# ALR H2O2 inh, entries above that show a hit
nr	mol	HNF4A DNA FP	RanGTP-Impb inh	LANA-H2B inh	B2AR ag	Vif A3G	ALR H2O2 inh
18	CC(C)N(c1nnc(N)s1)C(C)C	1.1	-3.0	1.4	-4	20%	97*

# (cont.)
21: Cc1c(-c2ccc(Br)cc2)[n+](=O)c2c(n1[O-])CCCCC2
22: O=C(COc1ccc2ccccc2c1)N/N=C/c1ccccn1
23: CC1CCc2sc3ncnc(N4CCOCC4)c3c2C1 (stereo not given)
24: Cc1cc(C)cc(SCc2noc(C(=O)NC(C)C)c2C(=O)O)c1
25: O=C(CNC(=O)c1ccccc1F)NCCc1ccc(Cl)cc1
26: CCN1CCN(C(c2cccs2)C(C)NC(=O)C(=O)N2CCCCC2)CC1 (stereo not given)
27: CC(=O)Nc1ccc(S(=O)(=O)N2CCN=C2SCc2ccccc2C)cc1
28: COc1ccc(S(=O)(=O)NCCS(=O)(=O)N2CCN(c3ccccc3)CC2)cc1
29: COc1cc(OC)cc(C(=O)N/N=C/c2ccc(OC)c(COc3ccc(F)cc3)c2)c1
30: COc1ccccc1C(=O)NNC(=O)C(=O)NC(C)C

entry no. | 21 | 22 | 23 | 24 | 25 | 26 | 27 | 28 | 29 | 30
HNF4A DNA FP | -42 | 0.7 | 1.7 | -1.6 | 0.1 | 1.1 | 4.6 | -4.3 | 2.2 | -0.1
RanGTP-Impb inh | -3.5 | 10 | -6.4 | 0.6 | -1.6 | 5.8 | 0.0 | 9.7 | -1.7 | -2.4
LANA-H2B inh | -0.6 | -3.7 | -3.0 | 2.7 | -5.2 | -1.7 | -4.4 | 1.4 | -0.9 | -1.6
B2AR ag | -4 | 1 | 12 | 2 | 15 | 4 | -7 | -1 | 12 | 1
Vif A3G | -6% | . | -2% | 5% | . | -5% | . | 1% | 20% | 7%
ALR H2O2 inh | 2 | -14 | 2 | 3 | 0 | -5 | 98* | 0 | -5 | -14
Calb FLC | -3 | -25 | 5 | -10 | -11 | 8 | 5 | -9 | -1 | -15

31: O=C(CN1CCN(C(=O)c2ccccc2)CC1)Nc1ccc(Cl)cc1F
32: CCCn1c(O)c(CN2CCCC(C)C2)c(C)c(C#N)c1=O (stereo not given)
33: CC(=O)NC(CC(=O)Nc1nccs1)c1ccccc1 (stereo not given)
34: CN(C)CCCCNCCCNC(=O)/C=N\O
35: O=P(O)(O)c1ccccc1OCCOCCOCCOCCOc1ccccc1P(=O)(O)O
36: Cc1ccc(N(C(=O)CNC(=O)c2ccco2)C(C(=O)NCC2CCCO2)c2ccccc2)cc1 (stereo not given)
37: CN1CCC(=O)N([C@H](CC#N)c2ccccc2)CC1
38: Cc1cccc(N2CCN(C(=O)c3ccncc3)CC2C)c1 (stereo not given)
39: Cc1ccc2cc(/C=N/NC(=O)CN3CCOCC3)c(Cl)nc2c1
40: O=C(/C=C/c1ccc2c(c1)OCO2)Nc1nc2ccc(F)cc2s1

entry no. | 31 | 32 | 33 | 34 | 35 | 36 | 37 | 38 | 39 | 40
HNF4A DNA FP | -2.3 | -12 | -0.1 | 2.8 | -2.2 | 1.2 | -1.0 | 0.3 | -3.2 | 1.6
RanGTP-Impb inh | 3.4 | -2.6 | 0.6 | 1.4 | 2.8 | -3.7 | 4.8 | 3.5 | 4.1 | -2.3
LANA-H2B inh | -3.4 | -0.3 | -1.3 | -5.8 | -3.5 | -2.1 | -0.9 | 2.6 | 0.4 | 2.8
B2AR ag | 2 | 2 | 1 | 2 | -1 | -15 | -1 | 7 | -2 | -2
Vif A3G | ? | 5% | . | -2% | 8% | 2% | . | -2% | 2% | -9%
ALR H2O2 inh | -17 | -10 | -2 | 0 | 5 | . | . | 98* | 10 | -4
Calb FLC | -7 | -3 | -1 | 22 | 0 | -16 | 2 | 3 | 1 | -1

41: O=C1CCCC(=O)N1c1ccc(F)cc1
42: COCCCNC(=O)c1ccc(CS(=O)(=O)c2ccc(Br)cc2)o1
43: COc1ccc(C(=O)/C=C2/c3ccccc3CC(C)(C)N2C)cc1OC
44: Cc1cc(NC(=O)c2ccccc2Cl)c(C(C)C)cc1O
45: COc1ccccc1N1CCN(C(=O)/C=C/c2c(Cl)nc3ccccn23)CC1
46: CC1CC(=O)Nc2ccccc2N1C(=O)Nc1ccc(F)cc1 (stereo not given)
47: O=C(Nc1nc2c(F)cc(F)cc2s1)C1COc2ccccc2O1 (stereo not given)
48: CCCn1c(CN2CCN(C)CC2)nc2ccccc21
49: CC(C#N)On1c(SC(C)C#N)nc2ccccc2c1=O (stereo not given)
50: CCOC(=O)C1=C(CSc2nc3c(cc2C#N)CCC3)OC(N)=C(C#N)C1c1ccccc1 (stereo not given)

entry no. | 41 | 42 | 43 | 44 | 45 | 46 | 47 | 48 | 49 | 50
HNF4A DNA FP | -5.2 | 3.9 | 0.2 | -1.6 | -2.8 | -1.3 | 19 | 1.2 | 1.3 | 2.6
RanGTP-Impb inh | 0.8 | -1.8 | -5.5 | 1.2 | -1.4 | -1.1 | -1.7 | . | -0.5 | 12
LANA-H2B inh | 1.6 | -0.5 | 0.2 | -1.3 | -1.2 | -0.1 | 0.2 | -3.6 | 2.3 | 7.8
B2AR ag | -6 | 7 | 0 | 3 | -20 | -3 | 0 | 5 | 3 | 3
Vif A3G | -2% | -4% | . | -2% | 3% | . | ? | 7% | -1% | 3%
ALR H2O2 inh | -8 | -4 | 13 | 51 | 49 | -5 | 0 | -8 | -5 | 11
Calb FLC | -6 | 1 | -7 | 40 | 13 | -9 | 0 | . | -4 | -1

51: COc1cccc(S(=O)(=O)Nc2ccc(C(=O)N3CCCCCC3)cc2)c1
52: Cc1ccc(S(=O)(=O)Nc2cccc(C(=O)NCC(c3ccco3)N(C)C)c2)cc1F (stereo not given)
53: Cc1cccc(N(Cc2cc3ccccc3[nH]c2=O)C(=O)c2ccco2)c1C
54: O=C1CCc2cc(S(=O)(=O)N3CCN(c4ccccc4)CC3)cc3c2N1CCC3
55: CCOc1ccccc1NC(=O)COC(=O)CNS(=O)(=O)c1ccc(C)cc1
56: COCCCNC(=O)c1ccc2c(c1)OCO2
57: O=C(CCNS(=O)(=O)c1cccs1)Nc1ccccc1F

entry no. | 51 | 52 | 53 | 54 | 55 | 56 | 57
HNF4A DNA FP | -6.3 | 0.5 | 0.4 | -3.4 | -3.7 | -2.2 | 1.7
RanGTP-Impb inh | ? | 1.1 | -3.6 | -0.5 | 0.3 | -0.7 | -4.2
LANA-H2B inh | -5.0 | -2.7 | 5.1 | 1.3 | 0.0 | 3.9 | -2.1
B2AR ag | 0 | 4 | -10 | 9 | -5 | -10 | 3
Vif A3G | . | 5% | . | 4% | . | 4% | 4%
ALR H2O2 inh | -4 | 3 | -5 | 0 | -3 | -2 | .
Calb FLC | -10 | -4 | -1 | 9 | 30 | 4 | 13

# Looked up above.
# entry 51 in LANA-H2B inh: -5.0
# entry 53 in B2AR ag: -10

# Part of the list above in order of formula weight, rising:
51: COc1cccc(S(=O)(=O)Nc2ccc(C(=O)N3CCCCCC3)cc2)c1
55: CCOc1ccccc1NC(=O)COC(=O)CNS(=O)(=O)c1ccc(C)cc1
54: O=C1CCc2cc(S(=O)(=O)N3CCN(c4ccccc4)CC3)cc3c2N1CCC3

entry no. | 51 | 55 | 54
HNF4A DNA FP | -6.3 | -3.7 | -3.4
RanGTP-Impb inh | ? | 0.3 | -0.5
LANA-H2B inh | -5.0 | 0.0 | 1.3
B2AR ag | 0 | -5 | 9
Vif A3G | . | . | 4%
ALR H2O2 inh | -4 | -3 | 0
Calb FLC | -10 | 30 | 9
